# Beta apoptosis – beta cell apoptosis inhibition; INS-1E cytokine-induced death, ATP luminescence, 48 h; percent of positive-control rescue, neutral wells zero; 0.8% of 300,000 active; protection from apoptosis, % (concentration not given with the values);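 active = all replicates at 75% or more, or half of them and the mean; inconclusive = half reach 75% but not the mean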;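 also: 0% = cytokine-treated negative control wells and 100% = positive control rescue; higher means more ATP so stronger rescue from cytokine killing; wells of about 40 µL received 100 nL stock; the first replicate is given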
# RanGTP-Imp inh – inhibitors of RanGTP-importin-beta interaction, primary screen, biochemical, FRET, CFP-Ran, YFP-importin-beta, homogeneous; cell-free CFP-Ran/YFP-importin-beta FRET ratio; inhibition, % (test concentration not listed); 1.1% of 300,000 active; AID 2216;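 active = most replicates above 15%; inconclusive = exactly half above 15%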;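 also: 0% = DMSO wells and 100% = Ran loaded with GDP instead of GTP; wells of about 40 µL received 100 nL stock; the first replicate is given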
# Vif A3G – HIV-1 Vif–A3G interaction blockers – biochemical, TR-FRET, GST-Vif 1-94, biotin-A3G peptide, dose response retest, primary screen (AID 1117319). 0.57% of 260,000 active. TR-FRET GST-Vif / biotin-A3G peptide binding; higher % means a stronger effect; test concentration not given here; strong numbers were not always called active. inhibition, %; hits with a dose series show IC50 in µM;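 active = above the screen mean plus three standard deviations and confirmed in dose response; inconclusive = results disagree or hit not tested in dose response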;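 also: Vif residues 1-94 fused to GST binding biotinylated APOBEC3G peptide 110-148; 0% = full assay without inhibitor and 100% = GST in place of GST-Vif; retest series ran down from 100 µM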
# Ecoli rRNA inh – selective bacterial rRNA inhibition in E. coli; E. coli WT GFP vs humanized-ribosome RFP mutants, fluorescence, 24 h; active compounds read low; DMSO median 0, no signal -100; GFP signal change (wild-type ribosome), % (concentration not given with the values); 1.6% of 350,000 active; AID 720706;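 active = significant combined selectivity score with lowered wild-type GFP, culture density cut under 30%, mutant RFP and density less affected; inactive = any of these conditions unmet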; also: one replicate is shown; some compounds called inactive have numbers as strong as hits
# MLL AF4-AF9 inh – blocks AF4 peptide binding to human AF9; AlphaScreen, biotin-AF4 peptide binding to FLAG-AF9; inhibition, % at 10 µM; 0.47% of 350,000 active; AID 651704;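 active = every replicate reaching a set inhibition limit, whatever the replicate mean, cut at about 25% in these data; inconclusive = mean inhibition reaches that limit but some replicates miss it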;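 also: 0% = plate neutral control median and 100% = total signal loss; the record names both 10 and 1 µM as test concentration; the first replicate is given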
# Target sequence (P42568 whole entry, looked up): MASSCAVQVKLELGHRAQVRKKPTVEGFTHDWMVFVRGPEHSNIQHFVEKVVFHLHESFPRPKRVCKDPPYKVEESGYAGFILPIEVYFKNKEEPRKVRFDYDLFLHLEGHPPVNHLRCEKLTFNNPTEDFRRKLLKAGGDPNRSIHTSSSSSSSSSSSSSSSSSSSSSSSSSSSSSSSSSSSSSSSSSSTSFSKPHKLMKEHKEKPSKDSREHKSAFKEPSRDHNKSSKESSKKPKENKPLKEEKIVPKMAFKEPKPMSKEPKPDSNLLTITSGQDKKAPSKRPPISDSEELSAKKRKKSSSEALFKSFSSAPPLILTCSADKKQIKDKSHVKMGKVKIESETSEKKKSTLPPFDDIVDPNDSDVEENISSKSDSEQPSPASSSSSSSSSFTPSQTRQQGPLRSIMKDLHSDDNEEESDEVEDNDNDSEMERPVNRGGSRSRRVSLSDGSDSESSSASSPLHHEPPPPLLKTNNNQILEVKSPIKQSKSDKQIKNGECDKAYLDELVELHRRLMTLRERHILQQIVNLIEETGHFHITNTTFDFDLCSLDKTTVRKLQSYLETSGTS
# T cruzi repl – T. cruzi replication inhibition; T. cruzi beta-gal in NIH3T3, luminescence, 90 h; inhibition, % (test concentration not listed); 1.4% of 300,000 active;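 active = mean inhibition across valid replicates above about 55%, limit read from the data; inconclusive = mean below that limit but half or more replicates reach it; inactive = mean below it, under half of replicates reach it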;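 also: signal also drops with host cell toxicity which is not excluded here; 0% = plate median of DMSO wells and 100% = zero luminescence signal; higher percent means less beta-gal luminescence so fewer parasites; stock transfer was 50 nL into about 50 µL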
# Bfl-1 A1 inh – inhibitors of the anti-apoptotic protein A1, read as caspase activation | MEF A1-2A-BIM cells, Caspase-Glo 3/7 luminescence, 3 h; percent of clofoctol response, vehicle zero | caspase activation, % (concentration not given with the values) | 0.066% of 330,000 active;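 active = over half of replicate activation scores above 10%, or exactly half above 10 with the replicate mean above 10; inconclusive = replicate mean below 10 yet half the replicates above 10; inactive = over half of replicates below 10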;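 also: wells of about 30 µL received 50 nL stock; many hits fall short of the cut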
# Calb FLC – C. albicans growth modulation with fluconazole. growth inhibition, % (no concentration beside the values). 0.57% of 300,000 active. C. albicans CaCi-2 (fluconazole-resistant clinical isolate) + fluconazole, Alamar Blue growth, 48 h;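 active = most replicates above 75%; inconclusive = exactly half above 75%; inactive = most below 75%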;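 also: all wells also contain fluconazole at 8 µg/ml as a sub-toxic cotreatment; 0% = median of DMSO wells and 100% = median of geldanamycin control wells; wells of about 8 µL received 7.5 nL stock; the first replicate is given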
# Ecoli rRNA inh OD600 – further read-out of Ecoli rRNA inh, marked with its call; OD600 change, %; measured here: OD600 growth;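 optical density of the mix in the first replicate; 0 = DMSO median and -100 = no signal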
# Ecoli rRNA inh RFP – recorded beside Ecoli rRNA inh, whose call it bears; RFP signal change, %; measured here: RFP humanized mutant strains;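 first replicate; 0 = DMSO median and -100 = no signal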
# * marks the source's active call; other numbers are inactive results; u = inconclusive; x = no result given; & = joins results of further samples. Only part of the results is shown; the hit share may differ from the screen's.
Molecule,Beta apoptosis,RanGTP-Imp inh,Vif A3G,Ecoli rRNA inh,Ecoli rRNA inh OD600,Ecoli rRNA inh RFP,MLL AF4-AF9 inh,T cruzi repl,Bfl-1 A1 inh,Calb FLC
CC(=O)O[C@@]12CO[C@@H]1C[C@H](O)[C@@]1(C)C(=O)[C@H](O)C3=C(C)[C@@H](OC(=O)[C@H](O)[C@@H](NC(=O)c4ccccc4)c4ccccc4)C[C@@](O)([C@@H](OC(=O)c4ccccc4)C12)C3(C)C (stereo partly drawn),11,3.8,x,x,x,x,9.9,55*,-0.1,-5
COc1ccc(-c2nc(CSCC(=O)N3CCC4(CC3)OCCO4)c(C)o2)cc1OC,1,-4.4,-2%,x,x,x,x,-17,-0.8,-7
Cc1nc2ccccc2c(=O)n1-c1ccc(Br)cn1,-2,-2.3,-5%,6,1,3.5,2.1,-16,0.3,6
Cc1ccc(N=Nc2c(O)[nH]c(=O)[nH]c2=O)c([N+](=O)[O-])c1,0,1.1,-3%,x,x,x,x,-3,0.8,6
CC(C)n1c(O)c(C=NCc2cccnc2)c(=O)[nH]c1=S,-6,0.5,-10%,18,19,4.9,-2.5,-1,0.6,-2
COc1ccccc1OP(=O)(Nc1ccc(Br)cc1)Oc1ccccc1OC,9,0.0,1%,4,1,1.5,1.8,38,0.5,0
COC(=O)C1=C(C)NC(C)=C(C(=O)OC)C1c1ccccc1[N+](=O)[O-],x,0.4,19%,-12,-31,-0.3,8.1,7,-0.5,-9
CN1CCC2(CC1)C(C#N)=C(N)NC(S)=C2C#N,4&-3,7.1,12%,33&14,20&14,6.6&9.6,-3.7&-0.5,-2&-26,1.1&0.2,18
CCc1c(C)nc(N)nc1N1N=C1SCC#N,-1,1.7,21%,x,x,x,x,7,0.1,-4
Cc1cccc(N=Cc2c(O)n(-c3ccccc3C)c(=O)[nH]c2=O)c1,-4,1.6,22%,0,11,-0.6,-41,-13,-0.6,-1
CN1OC[C@@H]2COc3ccc4ccccc4c3[C@@H]21,-5,-2.5,x,28,17,2.4,0.4,-1,-0.2,2
O=C(NC(C(Cl)Cl)N1CCOCC1)c1ccccc1 (stereo not drawn),-1,22*,-5%,-1,4,-0.3,-3.7,-2,0.8,-9
O=C(NCCO)c1nsnc1NCCCl,-11,-1.3,0%,10,5,-1.1,-3.3,-6,0.3,-4
c1cc(C2N3CCCN2CC3)ccn1 (stereo not drawn),-10,4.1,15%,5,9,-1.0,0.4,-8,-0.1,0
CN1CCc2nc(N)c(C#N)c(-c3ccccc3)c2C1,x,-0.2,5%,16,-1,-1.4,-16,-10,0.7,-4
O=C1NC(=O)C2(Cc3ccccc3N3CCCC32)C(=O)N1 (stereo not drawn),-3,10,u,x,x,x,x,-7,0.1,-14
Cc1ccc(S(=O)(=O)N2CN3CCN(C3)C2)cc1,-5,3.7,-2%,x,x,x,x,-4,2.5,29
O=C(COc1ccccc1)N1CCN(CC2CC=CCC2)CC1 (stereo not drawn),-7,0.8,x,2,8,-2.8,-0.2,-1,-0.4,-32
COc1cc(C(O)CNC(C)C)cc(F)c1OC (stereo not drawn),-6,0.6,x,25,15,-7.6,1.3,-25,-0.4,-2
COc1ccc(OC)c(-n2c(O)c(C=Nc3c(C)n(C)n(-c4ccccc4)c3=O)c(=O)[nH]c2=O)c1,-1,0.5,u,9,8,0.8,-0.3,-8,0.6,55
O=C1/C(=C\c2ccc3c(c2)OCO3)N2CCC1CC2,-3,-2.0,-1%,2,-2,-12,1.7,-3,0.3,-3
COC(=O)COc1cc(C)cc2oc(=O)c3c(c12)CCCC3,-4,10,6%,-5,-1,3.2,-27,-14,0.1,41
Cc1cc2c(s1)NC(=O)CN=C2c1cccs1,-2,6.1,24%,5,0,0.0,x,-7,-0.2,2
CCc1ccccc1NC(=O)CSc1nnc([C@@H](N)Cc2c[nH]c3ccccc23)o1,-9,13,66%,x,x,x,x,4,0.0,15
O=C(c1ccc2c(c1)OCO2)C1CCCN(CC2CCCCC2)C1 (stereo not drawn),2,-3.4,x,3,-9,0.2,1.1,27,0.4,-8
c1ccc(C2CC3CC(c4ccco4)N2O3)cc1 (stereo not drawn),-1,2.4,4%,x,x,x,x,-14,1.6,-14
O=c1c2ccccc2nc(/C=C/c2ccc3c(c2)OCO3)n1-c1cccc(O)c1,-2,0.8,24%,x,x,x,x,2,-0.2,-22
N=c1sccn1Cc1ccccc1F,2,-4.4,2%,13,16,-0.2,4.4,-7,1.0,-9
COc1ccc(C)cc1NC(=O)N1CCC2(CC1)OCCO2,3,-5.8,2%,0,7,0.1,0.8,-11,0.4,-35
Cc1ccccc1CS(=O)(=O)Cc1ccc(C(=O)N2CCC3(CC2)OCCO3)o1,-1,0.6,-2%,3,2,-5.9,0.1,-3,u,-6
O=C(CCN1C(=O)COc2ccccc21)N1CCC2(CC1)OCCO2,-2,4.1,0%,x,x,x,x,-12,-0.2,0
CCN1C(=O)N(CC)C(=O)C2(Cc3ccccc3N3CCN(c4ccccc4)CC32)C1=O (stereo not drawn),2,0.6,>100µM*,x,x,x,2.3,-4,0.3,0
CC1(C)CN=C(NCc2ccccc2)S1,-3,-0.2,0%,7,2,-6.3,2.0,-17,-0.2,1
COC(=O)C(O)(c1ccc(NC(=O)NC2CCCCC2)cc1)C(F)(F)F (stereo not drawn),-3,-3.2,25%,10,3,5.3,-2.0,-9,-1.0,0
CCN1C[C@]2(C)CC[C@H](O)[C@]34C1[C@H](C[C@H]23)[C@@]1(O)C[C@H](OC)[C@H]2C[C@@H]4[C@@H]1C2O (stereo partly drawn),1,x,x,-11,-6,3.9,0.8,x,-0.1,x
CCNCC(O)c1cccc(O)c1 (stereo not drawn),8,-35,x,x,x,x,0.8,-26,-1.3,x
COC1=CC(=O)O[C@@H](/C=C/c2ccccc2)C1,1,x,x,1,4,-1.6,0.1,x,0.1,x
CCOP(=O)(OCC)C(O)c1ccccc1 (stereo not drawn),-6,-4.6,1%,13,4,-0.5,4.9,-24,0.9,-7
CCc1c(C)nc(N)nc1N1N=C1SCCOc1ccccc1,-2,1.3,19%,4,-2,1.4,-0.2,6,0.3,-5
CCOC(=O)C(=CNc1ccc(C(O)(C(=O)OCC)C(F)(F)F)cc1C)C(=O)OCC (stereo not drawn),97*,3.0,9%,x,x,x,x,17,-0.4,2
C=CCC1(CN2CCCCCC2=O)C(=O)NC(=O)NC1=O,-2,1.4,7%,x,x,x,x,-32,-0.1,u
COc1ccccc1N1C(=O)NC(=O)/C(=C\c2cnn(-c3ccccc3)c2)C1=O,x,3.7,x,20,14,0.2,-1.2,-11,2.9,5
Cc1cc(NC(=O)C(Cl)(Cl)Cl)no1,x,-2.7,x,-2,2,-2.7,-7.4,-9,-0.2,-1
O=C(Nc1cccc(C(F)(F)F)c1)OC1CN2CCC1CC2 (stereo not drawn),x,-0.5,3%,6,2,0.2,-0.4,-3,0.0,-4
CCOc1ccc([N+](=O)[O-])cc1CNCCc1ccccc1,-2,-4.4,1%,-2,-2,-1.8,1.8,30,-0.1,-42
O=c1c2ccccc2nc(/C=C/c2ccc(F)cc2)n1-c1ccccc1O,11,-3.2,0%,-9,-7,8.1,-1.3,10,1.2,3
CCOC(=O)C1(CCCc2ccccc2)CCN(C2CCCC2)CC1,7,0.6,-6%,-23,-22,-1.7,0.0,-20,0.3,-15
O=C1NC(=O)C(=Cc2ccc(OCCOc3ccc([N+](=O)[O-])cc3)cc2)C(=O)N1,-1,0.8,1%,22,18,4.6,1.8,-13,-1.1,-10
N#CC1=C(N)Oc2c(c(=O)oc3ccccc23)C1c1ccc([N+](=O)[O-])o1 (stereo not drawn),-8,u,u,14,3,2.6,-4.1,-13,0.1,-9
COC(=O)C1=C(c2ccccc2OCc2ccccc2)C[C@@H]2CC[C@H]1N2C(=O)NCCc1ccc(F)cc1,5,x,x,6,11,-1.9,1.9,x,-1.2,x

# (next part)
Molecule,Beta apoptosis,RanGTP-Imp inh,Vif A3G,Ecoli rRNA inh,Ecoli rRNA inh OD600,Ecoli rRNA inh RFP,MLL AF4-AF9 inh,T cruzi repl,Bfl-1 A1 inh,Calb FLC
COC(=O)C1=C(c2c(C)noc2C)C[C@@H]2CC[C@H]1N2C(=O)NCc1ccco1,-5,x,x,6,7,2.5,-0.3,x,0.6,x
CCCCn1c(O)c(C=NCCN2CCCCC2)c(=O)[nH]c1=O,0,-0.8,-2%,x,x,x,x,-14,0.4,-1
O=C1CC(c2cccnc2)=NN1c1ccc(Cl)cc1Cl,-6,-0.4,15%,-2,4,-1.3,-5.1,14,-0.1,-2
O=c1c2ccccc2nc(Cc2ccccc2)n1-c1ccccc1O,-4,-3.9,-7%,-16,-14,-1.1,-24,5,0.6,15
O=c1[nH]c(CN2CC=C(c3ccccc3)CC2)nc2scc(-c3ccccc3)c12,-7,-1.8,u,4,10,17,3.0,-16,0.6,-11
O=C(N/N=C1/CN2CCC1CC2)c1cccc(O)c1,-3,1.3,7%,x,x,x,x,-2,0.0,18
C/C(=N\N1CCCCCC1)c1c(O)n(-c2ccc(Cl)cc2)c(=O)[nH]c1=O,-6,0.9,-7%,8,8,1.0,0.8,1,0.7,21
CNC(C(=O)c1ccccc1)C(OC)c1cccc([N+](=O)[O-])c1 (stereo not drawn),-5,1.8,7%,1,5,-0.8,-6.2,-5,0.4,-7
Cc1c(C=C2C(=O)N(C)C(=O)N(C)C2=O)c(=O)n(-c2ccccc2)n1C,-5,6.8,x,x,x,x,-1.7,-21,0.0,3
CCC(=Nc1ccc(OC)cc1OC)c1c(O)n(C)c(=O)n(C)c1=O,8,-3.1,2%,x,x,x,x,1,0.4,5
CS(=O)(=O)NCc1nnc2n1-c1ccc(Cl)cc1C(c1ccccc1)=NC2,-2,1.0,10%,x,x,x,x,0,0.4,2
O=c1[nH]c(=S)[nH]c(O)c1C(c1ccccn1)c1c(O)[nH]c(=S)[nH]c1=O,-7,1.8,2%,7,12,-0.5,-13,-9,1.2,1
O=P(NC(c1ccccc1)c1ccccc1)(Oc1ccccc1)Oc1ccccc1,-7,6.7,8%,x,x,x,x,31,0.3,24
CCN1CCN(Cc2ccc(OC(F)(F)F)cc2)CC1,-2,-1.6,7%,x,x,x,x,41,-1.2,-34
N=c1c[n+](CC23CC4CC(CC(C4)C2)C3)[n-]o1,-5,3.3,-2%,x,x,x,x,7,1.1,-52
O=c1cccc2n1CC1CC2CN(Cc2c(Cl)cccc2Cl)C1 (stereo not drawn),4,2.7,18%,x,x,x,x,19,0.2,4
